nsP2pro primary – CHIKV nsP2 protease inhibition, primary qHTS. FRET peptide cleavage, nsP2pro, fluorescence 1 h. Potency, µM (series often up to 24.9 µM), without a hit: at the top dose activity change, negative = inhibition, most hits filed as inhibitors. 1.1% of 31,000 active. AID 1964107; active means well fitted inhibition curve with a large enough effect; inconclusive means small, poorly fitted or top-dose-only effect; inactive means no such curve, though single readings can be large or run the other way; further: nearly all actives have a fitted effect of over 60% in size; a reference inhibitor and vehicle were the controls
The depositor's hits bear a star; i = inactive; ? = inconclusive; & = joins results of further samples; [ ] = remark or other dose. On the % scale 0 is the no-effect control and ±100 the full control effect; potency means the concentration at half of the fitted maximal effect.

structure,nsP2pro primary
CN1CCN(Nc2nn3c(=O)c4ccccc4nc3s2)CC1,i
C/C=C(\C)C(=O)O[C@H]1C=CC(=O)O[C@H]1/C=C/[C@@H](O)[C@H](C)O,-26.0%
O=C1CCCCC(Cc2cccnc2)(C(=O)NCC2CC2)N1 (stereo not drawn),-3.0%
COCCNS(=O)(=O)c1cc(C(=O)O)cc(-c2ccncc2)c1,-1.1%
COc1ccc2[nH]c(=O)c3c(c2c1)OC(C)(C)C=C3,?
N#Cc1ccc(-c2ccc(NC(=O)Nc3ccc(-c4ccnc5nc[nH]c45)cc3)cc2)cc1,121.3%[activator]
CC1=CCC(C(C)(C)O[C@@H]2O[C@H](CO[C@@H]3O[C@@H](C)[C@H](O)[C@@H](O)[C@H]3O)[C@@H](O)[C@H](O)[C@H]2O)CC1 (stereo partly drawn),-12.7%[10 µM]
O=C(C1CCC1)N1CCC2(CC1)CC(N1CCCCC1)CCO2 (stereo not drawn),i
O=C(Nc1cccc(Cl)c1)N1CCSc2ccccc21,-12.7%
CCOc1ccccc1NC(=O)Cn1c(=O)n(Cc2ccccc2)c(=O)c2c1c1cc(C)ccc1n2C,-13.5%
CC(C)OC(=O)c1ccnc2cc(C(OCCN3CCCCC3)c3ccccc3Cl)sc12 (stereo not drawn),23.5%
C[C@]12CCC(=O)C=C1CC[C@@H]1[C@@H]2[C@@H](O)C[C@]2(C)C(=O)CC[C@@H]12,-8.3%
CCOC(=O)c1ccc(OCCC2CCN(c3ccc(C)nn3)CC2)cc1,4.8%
Fc1cc(Nc2nc(-c3ccncc3)nc3ccccc23)ccc1N1CCCCC1,i
CC(=O)N[C@@H](CS)C(=O)O,?
O=C(Nc1ccc2n(c1=O)C[C@H]1C[C@@H]2CN(CC2CCCCC2)C1)C1CCCCC1,?
Cc1cc(NC(=O)c2cccc(Cl)c2)ccc1-c1cc2ccccc2oc1=O,-25.0%
CCN1C(=O)CCNCC12CCOCC2,-2.7%
C(=C\c1ccccc1)/CN1CCN(C(c2ccccc2)c2ccccc2)CC1,13.5%
CC(=O)OCC(=O)C1(O)CCC2C3CCC4=CC(=O)CCC4(C)C3C(=O)CC21C (stereo not drawn),-20.0%
COc1cc(NS(=O)(=O)c2c(C)nc3sc(C)c(C)n3c2=O)cc(OC)c1,-29.6%
COc1ccc(CNC(=O)C[C@@H]2C[C@H]3O[C@H](CNC4CCCC4)[C@@H](O)[C@H]3O2)cc1,i
O=C(NCCc1ccc(Cl)cc1)C1CCc2nnc(CN[S+](=O)([O-])c3ccccc3Cl)n21 (stereo not drawn),i
CC(C)(S)[C@H](N)C(=O)O,-3.3%[2.68 µM]
C=C1C(O)CCC2(C)CC3(OC)OC(=O)C(C)=C3CC12 (stereo not drawn),-25.4%
CC(C(=O)O)c1ccc(C2CCCCC2)c2ccccc12 (stereo not drawn),-10.2%
CCc1nonc1NC(=O)c1oc2cc(C)c(Cl)cc2c1C,-17.1%
COc1ccc(C(=O)Oc2cc(-c3ccc(OC)c(OC)c3)cc(=O)c3c(C)oc(C)c23)cc1,3.2%
O=C1NC(c2cccc([N+](=O)[O-])c2)=CCN1c1ccccc1O,2.6%[10 µM]
C=C[C@H]1[C@H](O[C@@H]2O[C@H](CO)[C@@H](O)[C@H](O)[C@H]2O)OC=C2C(=O)OCC[C@H]21,-4.3%
CCCCn1c(=O)nc2n(-c3ccc(F)cc3)c3ccccc3cc-2c1=O,-23.4%
COc1cc(C(C)=O)ccc1O[C@@H]1O[C@H](CO[C@@H]2O[C@@H](C)[C@H](O)[C@@H](O)[C@H]2O)[C@@H](O)[C@H](O)[C@H]1O,-12.6%[10 µM]
CCC[C@@H](C(=O)O)N1C(=O)[C@@H]2C[C@@H]3CCCC[C@@H]3N2C(=O)[C@@H]1C,-15.6%
O=C(Nc1ccc2c(c1)N(C1CCCC1)C(=O)c1ccccc1S2)c1ccccc1F,-15.7%
N#Cc1cccc(C(=O)Nc2ccc([C@H]3OCC(=O)N(Cc4ccc(F)cc4)[C@@H]3CO)cc2)c1,i
COc1ccc(-n2ncc(C(=O)Nc3ccc4c(c3)OCCO4)c2C2CCN(C(=O)OC(C)(C)C)CC2)cc1,-2.9%
O=C(Nc1ccc2n(c1=O)C[C@H]1C[C@@H]2CN(C(=O)c2ccccn2)C1)C1CCCCC1,-13.9%[39.2 µM]
Cn1cc(-c2nc(N3CCOCC3)cc3c2CN(CC2CC2)C3=O)cn1,-5.6%[39.2 µM]
CCOC(=O)c1cc(S(=O)(=O)N2CCN(c3ccc(OC)cc3)CC2)[nH]n1,-36.2%
CCNC(=O)N(C1CC1)C1CCOC2(CCN(C(=O)COc3ccccc3)CC2)C1 (stereo not drawn),-5.7%
Cc1c(NC(=O)CCc2cc3n(n2)CCNC3)cccc1-c1nncn1C,1.5%
Cc1cccc(C)c1OCc1cc(C(=O)N2CCC(c3ccncc3)CC2)no1,19.4%
COc1cc2ncc(-c3ccccc3)nc2cc1OC,10.0%
NC(Cc1cc(I)c(Oc2cc(I)c(O)c(I)c2)c(I)c1)C(=O)O (stereo not drawn),-15.3%[10 µM]
CCOc1ccccc1C(=O)N1CCC(c2n[nH]c(=O)n2Cc2ccc(OC)cc2)CC1,0.6%
O=C1Cc2cc(S(=O)(=O)N3CCN(c4ccc(C(F)(F)F)cc4)CC3)ccc2N1,-24.2%[39.2 µM]
NNc1nncc2ccccc12,-12.1%
CSc1ccc(OCc2ncc([N+](=O)[O-])n2C)cc1,-6.1%
COc1ccc(-c2ccc3nc(-c4cccc(C)c4C)oc3c2)c(OC)c1OC,-8.3%
Cc1ccc(OCCn2c(CCNC(=O)c3cccs3)nc3ccccc32)cc1,-6.2%

Additional results
structure,nsP2pro primary
O=C(Nc1ccc(Cl)c(Cl)c1)Nc1nnc(-c2ccncc2)s1,2.5%&-12.1%
CCOC(=O)C1CCC(CN(Cc2ccc(OC)cc2)S(=O)(=O)c2ccc(F)c(C(=O)Nc3cc(Cl)ccc3OC)c2)CC1 (stereo not drawn),-17.8%
Cc1ccc(NS(=O)(=O)c2ccc(N3CCCC3=O)cc2)cc1C,-0.9%
COc1ccc(Nc2nn3c(=O)c4ccccc4nc3s2)cc1,-29.6%
C[C@]12CC[C@@H](O)C[C@@H]1CC[C@@H]1[C@@H]2CC[C@]2(C)C(=O)[C@@H](Br)C[C@@H]12,0.6%
CN(Cc1cc(F)c(F)c(F)c1)C1CCc2nn(CC3CC3)c(=O)n2CC1 (stereo not drawn),-3.0%
CCOC(=O)C1CCCN(C(=O)Cn2ncn3c(cc4sc(CC)cc43)c2=O)C1 (stereo not drawn),-14.5%
O=C(O)CNC(=O)c1c(O)c2ccccc2n(Cc2ccccc2)c1=O,-20.2%&-7.5%
C[C@H]1O[C@@H](O[C@H]2[C@@H](O)C[C@H](O[C@H]3[C@@H](O)C[C@H](O[C@H]4CC[C@@]5(C)[C@H](CC[C@@H]6[C@@H]5CC[C@]5(C)[C@@H](C7=CC(=O)OC7)CC[C@]65O)C4)O[C@@H]3C)O[C@@H]2C)C[C@H](O)[C@@H]1O,?
C=CCNC(=O)c1cn2c(n1)CN(C(C)=O)CC2,-28.0%[39.2 µM]
C[C@H]1CC[C@@]2(OC1)O[C@H]1CC3C4CC[C@H]5C[C@@H](O)CC[C@]5(C)C4CC(=O)[C@]3(C)[C@H]1[C@@H]2C (stereo partly drawn),-4.7%[10 µM]
O=C(Nc1ccc2ccccc2c1)Nc1nnc(-c2ccc(Cl)cc2)s1,4.5%
CCc1c(C(=O)NNC(=O)[C@@H](O)c2cc(F)cc(F)c2)ccc(O)c1C,-0.3%
Cc1ccc(-c2c(CN3CCN(c4cccc(C(F)(F)F)c4)CC3)csc2C)cc1,-15.3%
Cc1cccc(-n2cnc3cc(C(=O)N4CCCCCC4)ccc32)c1,-1.2%
CCc1noc([C@@H]2CC(F)(F)CN2C(=O)c2ccco2)n1,3.3%
CC1(C)CCCC2(C)C(C(=O)O)=CCC12 (stereo not drawn),7.4%
O=C1CCc2cc(S(=O)(=O)Nc3ccccc3F)ccc2N1,-4.7%
N#Cc1cc(-c2nc(Nc3ccc(F)c(F)c3)c3ccccc3n2)ccn1,i
C#CCNC(=O)CNC(=O)c1cccc(-c2cc(F)ccc2OC)c1,-3.9%[39.2 µM]
COc1ccc2c(c1)c1c(c(=O)n(-c3ccccc3)c(=O)n1CC(=O)NCCC1=CCCCC1)n2C,-31.2%
CCOc1ccc2c(c1)C(C)=CC(C)(C)N2,?
c1ccc(CNc2ncnc3[nH]ncc23)cc1,-5.6%
Cc1ccc(CCNC(=O)c2ccc(NC(=O)N3CCSc4ccccc43)cc2)cc1,-5.7%
O=S1(=O)N=C(Oc2ccc3ccccc3c2)c2ccccc21,-1.1%

The list continues:
Compound | nsP2pro primary
CC1CCC(NC(=O)c2ccc(CSc3nc4ccncc4n3Cc3ccc(F)cc3)cc2)CC1 (stereo not drawn) | 35.8%[activator]
Cc1ccccc1-c1ccc(=O)n(CC(=O)NCCc2ccccc2)n1 | -3.2%
C[C@@]12CO[C@@H](CNS(C)(=O)=O)O[C@@H]1CC[C@]1(C)[C@@H]2CC[C@@H](O)[C@H]1CC(=O)NCc1ccco1 | ?
Cc1ccc(-c2cc(C(=O)Nc3ccncc3)c3ccccc3n2)cc1C | i
CC(C)(C)c1ccc(C(=O)NCC(c2cccs2)S(=O)(=O)c2ccc(F)cc2)cc1 (stereo not drawn) | 3.8%
CN1CCCN=C1/C=C/c1cccs1 | -6.3%
COc1ccc(-c2nccn2CC(CO)Cc2ccsc2)cc1O (stereo not drawn) | i
COCCn1c(C)cc(O)c(C(c2ccc(OC)cc2)N2CCCCC2)c1=O (stereo not drawn) | ?
N#Cc1c(-c2ccccc2C(F)(F)F)nc2ccccc2c1NCc1ccc(-c2cccnc2)cc1 | -4.0%
Cc1ccc(NC(=O)CN2C(=O)N/C(=C\c3cccn3-c3ccc(C(=O)O)cc3)C2=O)cc1 | 4.1%
Cc1ccccc1COC1CN(C(=O)C2CCN(C(=O)C3CC3)CC2)C1 | i
COC(=O)c1ccc(NC(=O)c2cc3cc(C)ccc3n2C)cc1 | -20.2%
C=C1C(=O)OC2CC(COC(=O)C(C)C)=C(C(C)CCCOC(C)=O)[C@@H](OC(C)=O)C12 (stereo partly drawn) | ?
CC1C(=O)CC2C3C(O)CC(C(=O)O)C12CC3(C)C (stereo not drawn) | ?
C[N+]1(C)CCCCC1COC(=O)C(O)(c1ccccc1)c1ccccc1 (stereo not drawn) | -9.9%
CCOC(=O)C1CCC(C(=O)Nc2ccc([S+](=O)([O-])Nc3nccs3)cc2)CC1 (stereo not drawn) | i
COCC(c1ccccn1)N(C)Cc1cn(-c2ccccc2)nn1 (stereo not drawn) | i
CCCC(=O)Nc1ncnc2c1ncn2C1O[C@@H]2COP(=O)(O)O[C@H]2[C@H]1OC(=O)CCC (stereo partly drawn) | 0.8%
CC(C)[C@@H](c1ccc(C(F)(F)F)cc1CN(Cc1cc(C(F)(F)F)cc(C(F)(F)F)c1)c1nnn(C)n1)N1CCC(C(=O)O)CC1 | -9.1%
COc1ccc(C(=O)c2ccccc2O)c(O)c1 | 1.3%
CCC1C(=O)NCCN1Cc1cn(-c2cccc(F)c2)nc1-c1ccc(C)o1 (stereo not drawn) | 11.2µM*
COc1cc(=O)n2c(c1C(=O)NCc1ccccc1Cl)CCCC2 | 3.6%
CN1CCN([C@H]2CCN(C(=O)CCCc3cn[nH]c3)C[C@H]2CCC(=O)O)CC1 | -2.6%
O=C(CN1C(=O)C(c2ccccc2)=NC12CCCCCC2)NCC1CCCO1 (stereo not drawn) | -6.0%
CCN1CCN(Cc2ccc(NC(=O)c3ccc(C)c(Oc4ccnc5[nH]ccc45)c3)cc2C(F)(F)F)CC1 | 140.1%[activator]
Cn1cc(Nc2cnccc2C(=O)O)c2cccnc21 | -5.5%
CCOC(=O)c1ccc(NC(=O)c2nc(SCc3ccccc3F)ncc2Cl)cc1 | 54.0%[activator]
NC(=O)CCCSc1nc(N)nc(-c2c(Cl)cc3c4c(cccc24)COC3)n1 | -5.0%
COc1cccc(CNC(=O)c2c(C)nn(-c3cccc(C)c3)c2-n2cccc2)c1 | -17.2%
CCOC(=O)c1sc2ccccc2c1S(=O)(=O)Nc1ccc(CC)cc1 | -11.9%
COC(=O)c1ccc(CN2C[C@@H]3C(C)(C)COc4ccc(OC)cc4[C@]3(CO)C2)cc1 | ?

Screening data deposited in PubChem by National Center for Advancing Translational Sciences (NCATS).

A portion of the library, so the mix of outcomes need not match the whole.
